Screening results (PubChem BioAssay)
Rce1 inhib – blocks yeast Ras-converting enzyme; Q03530; calls only; hit rate 0.27% among 290,000; yeast membranes, quenched prenylated peptide cleavage fluorescence;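 active = fall in fluorescence gain of 50% or more versus controls, with final raw signal at or below 3038400; inconclusive = same 50% fall but final raw signal above 3038400; inactive = fall in fluorescence gain under 50%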;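 also: plate controls were neutral control wells for no effect and wells lacking membranes for full effect; tested at 10 µM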
Target sequence (Q03530 whole entry, looked up): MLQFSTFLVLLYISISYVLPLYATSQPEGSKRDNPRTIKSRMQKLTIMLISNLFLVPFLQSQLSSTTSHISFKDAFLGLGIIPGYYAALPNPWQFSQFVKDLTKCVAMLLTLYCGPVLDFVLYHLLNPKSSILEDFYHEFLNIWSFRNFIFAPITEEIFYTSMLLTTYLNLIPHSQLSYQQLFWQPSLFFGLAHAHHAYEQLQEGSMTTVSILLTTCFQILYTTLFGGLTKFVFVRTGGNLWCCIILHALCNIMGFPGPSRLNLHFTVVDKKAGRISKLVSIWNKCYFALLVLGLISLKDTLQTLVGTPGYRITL
eIF4H inh – inhibitors of RNA binding by human eIF4H; AID 2012; eIF4H fluorescence polarization binding assay; inhibition, % at 35 µM; hit rate 0.94% among 290,000;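 active = 50% or more with normal probe brightness, or confirmed in later tests; inconclusive = above 50% with abnormal brightness, or retests that disagree; inactive = below 50% or failed in later tests; about a fifth of its hits are not listed in these tables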;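 also: calls also rest on retests at 20 µM and on dose response follow-up; 0% = protein and probe with vehicle and 100% = probe without protein; strong numbers were not always called active; many hits fall short of the cut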
MT1-MMP act inh – MT1-MMP (human) activation inhibition. P50281. HT1080 RFP-PRO-GFP cells, GFP/RFP ratio fluorescence, overnight; percent of plate control window, DMSO zero. AID 651647. GFP/RFP ratio change, % at 20 µM. hit rate 0.061% among 360,000;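 active = GFP/RFP ratio change of at least 30% with cell ATP level not reduced by more than half and red fluorescence within 50% of control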; also: strong numbers were not always called active
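Assay system – RFP-PRO-GFP reporter HT1080 cells · Compound dosing – single dose of 20 µM compound, 1% DMSO final · Incubation – overnight compound exposure at 37 °C · Measure – GFP/RFP fluorescence ratio · Benchmarks – DMSO wells and RFP-L50D-GFP cells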
CSC inhib – blocks cancer stem cells; cancer stem cell-like cells viability, luminescence; inhibition, % at 7.5 µM; hit rate 1.1% among 300,000; AID 2717;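 active = mean at 75% or more and at least half the replicates too; inconclusive = mean and replicates disagree; tested in HMLE shEcad cells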;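 also: 0% = median of negative and 100% = median of positive control wells; the first replicate is given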
UUG fidelity – yeast start codon fidelity modulation | S. cerevisiae UUG-firefly luciferase reporter, luminescence/redox ratio | activity score, % at 18.7 µM | hit rate 0.13% among 350,000 | AID 602363;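 active = replicate mean at a twofold rise or more, about +100% in these data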;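 also: firefly luciferase made from a UUG start codon reports start codon fidelity; reporter light over untreated wells divided by growth signal over untreated wells; some hits fall short of that in this replicate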
HIV Env fusion – blocks HIV Env-driven cell-cell fusion. hit rate 1.1% among 360,000. HeLa-JRFL Env/CEM21 cell fusion, luciferase. inhibition, % at 12.3 µM;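 active = mean replicate inhibition score of at least 50 and every replicate individually at or above 50; inconclusive = only one of the two criteria met; inactive = mean below 50 and not all replicates reaching 50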;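 also: 0% = plate neutral controls and 100% = maraviroc near 300 nM; one replicate is shown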
PABP FP inh – PABP-poly(A) binding inhibition; AID 2014; PABP-poly(A) RNA binding, fluorescence polarization; inhibition, % at 35 µM; P11940; hit rate 1% among 290,000;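 active = 50% or more with normal probe brightness, or confirmed in later tests; inconclusive = above 50% with abnormal brightness, or retests that disagree; inactive = below 50% or failed in later tests; about a fifth of its hits are not listed in these tables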;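 also: calls also rest on retests at 20 µM and on dose response follow-up; controls were probe without protein and protein plus probe with vehicle; some compounds called inactive have numbers as strong as hits; many hits fall short of the cut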
eIF4H inh retest – second read-out of eIF4H inh, no call of its own (marks repeat the call); inhibition, %; compound at 20 µM; confirmation average;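 mean of two retest wells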
PABP FP inh retest – second read-out of PABP FP inh, no call of its own (marks repeat the call); inhibition, %; compound at 20 µM; confirmation repeats;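 mean of two retest wells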
MT1-MMP act inh RFP – second read-out of MT1-MMP act inh, no call of its own (marks repeat the call); RFP signal change, %; measured here: RFP expression control read;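 0 = vehicle wells; hits needed this value within 50% of zero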
* marks the source's active call; other numbers are inactive results; i = inactive; ? = inconclusive; . = not tested or not shown; & = joins results of further samples; [ ] = dose if it differs, or a comment.

SMILES	Rce1 inhib	eIF4H inh	MT1-MMP act inh	MT1-MMP act inh RFP	CSC inhib	UUG fidelity	HIV Env fusion	PABP FP inh	others
COCCN(CCOC)C(=O)Nc1ccc(Cl)cc1	i	-2	2	-1	13	-10	-25	-3
COc1cc2cncc(Cc3ccc(Cl)cc3)c2cc1OC	.	.	-15	-21	1	-1	.	.
Cc1ccc(-c2csc3ncnc(NS(=O)(=O)c4ccc(Cl)cc4)c23)cc1	i	0	6	-5	82*	-6	14	5
Cc1ccc(S(=O)(=O)NCCC(=O)Nc2ccc(C)cc2C(=O)c2ccccc2)cc1	i	-6	1	-6	-14	-2	17	0
C=CCSc1nc(-c2ccccc2)c(C#N)c(=O)[nH]1	i	15	14	2	1	-10	-36	7
OCC[C@@H]1C[C@H](O)[C@@H](O)[C@]2(OCCc3ccccc32)O1	i	-2	2	3	-2	-25	10	-6
C/C=C/c1ccc(Oc2nnnn2-c2ccc(C(=O)O)cc2)c(OC)c1	i	-3	-2	-3	3	-22	-6	4
CCCCc1cc(=O)oc2c(CN(C)C)c(O)ccc12	?	1	.	.	19	23	-17	-8
Cc1noc(C)c1COc1ccc(C(=O)N2CCCC(C(F)(F)F)C2)cc1 (configuration not stated)	i	-5	0	-4	-21	-3	16	2
CCc1c(C(=O)N/N=C/c2ccsc2)csc1C	i	6	2	5	15	.	-1	-5

2 records drawn at random from the list so far:
SMILES	Rce1 inhib	eIF4H inh	MT1-MMP act inh	MT1-MMP act inh RFP	CSC inhib	UUG fidelity	HIV Env fusion	PABP FP inh	others
CCc1c(C(=O)N/N=C/c2ccsc2)csc1C	i	6	2	5	15	.	-1	-5
C=CCSc1nc(-c2ccccc2)c(C#N)c(=O)[nH]1	i	15	14	2	1	-10	-36	7

Next compounds:
SMILES	Rce1 inhib	eIF4H inh	MT1-MMP act inh	MT1-MMP act inh RFP	CSC inhib	UUG fidelity	HIV Env fusion	PABP FP inh	others
COc1ccc(N2CC(NS(=O)(=O)c3cccnc3)CC2=O)cc1 (configuration not stated)	i	.	1	0	-6	.	-8	.
Cc1ccc(-n2nnnc2/C=C\Nc2cc(C)on2)cc1	i	-6	-13	2	11	-15	35	-5
Cc1ccc(NC(=O)COC(=O)Cn2ccc(=O)[nH]c2=O)cc1C	.	.	1	5	-10	3	.	.
Cc1ccccc1-c1cc2nc(NCc3ccncc3)n(C)c(=O)c2s1	.	.	5	4	.	-14	10	.
CC(C)(C)OC(=O)N1CCN(C(=O)c2[nH]cnc2C(=O)Nc2cccc(Cl)c2)CC1	.	.	2	4	-17	-15	27	.
COCCn1c(C)c(C)c(S(=O)(=O)c2ccccc2)c1N	i	?	11	20	-6	-11	9	?
C=CCN=C1S/C(=C/c2ccc([N+](=O)[O-])cc2)C(=O)N1CC=C	i	-7	6	-1	6	-3	15	-10
Cc1nc(SCC(=O)NC2(C#N)CCCC2)n(CC(C)C)c1C	.	.	-4	2	.	-12	-4	.
Cc1cccn2c(=O)c(/C=C(\C#N)C(=O)NCc3ccco3)c(N3CCC(C(N)=O)CC3)nc12	i	2	1	6	-21	-9	-5	-13
COCCNC(=O)c1ccc(Cl)c(S(=O)(=O)Nc2cccc(C)c2C)c1	i	-1	2	3	11	-4	-197	5
Cc1ccc(NC(=O)CSc2nnnn2-c2ccc3c(c2)OCO3)cc1C	i	-5	-4	-2	-6	-12	.	-4
COc1ccc(-c2cc(C(=O)Nc3ccc(NC(C)=O)cc3)[nH]n2)c(C)c1	.	.	1	1	.	-31	-24	.
O=C(COc1ccc(Cl)cc1)NCc1ccc(F)cc1	i	3	-2	-2	-1	-12	14	6
Cc1c(C)n(CCCN(C)C)c2ncnc(Nc3ccccc3)c12	i	5	0	4	-10	-13	-7	5
COc1ccc(NC(=S)NNC(=O)c2cccs2)cc1	i	6	-2	0	7	.	-1	5
O=[N+]([O-])c1ccc(Cl)c(S(=O)(=O)Nc2ccc(-c3ccc(N4CCOCC4)nn3)cc2)c1	i	.	6	2	31	-14	5	.
COc1cc(NC(=O)c2ccccn2)cc(OC)c1OC	i	1	7	3	-17	.	0	42
COCCN(CC1CCCN(C2Cc3ccccc3C2)C1)C(=O)CCC(N)=O (configuration not stated)	i	3	0	6	4	-18	31	0
O=C(Nc1ccc(F)cc1)c1csc(Cc2ccccc2)n1	i	5.5*	-1	0	13	.	-8	97	eIF4H inh retest=71*;PABP FP inh retest=26
CNS(=O)(=O)c1cn(CC(=O)NCc2cccc(OC)c2)cc1S(=O)(=O)NC	i	-4	-2	4	-8	-20	16	-2
CN(C(=O)COc1ncnc2ccccc12)C1CCCCC1	.	.	2	5	3	-18	0	.
Cc1cc(C)cc(OCC(=O)Nc2ccc(N3CCCCC3)cc2)c1	i	.	2	4	14	-9	.	.
O=C(CNc1ccc(Br)cc1)c1ccc(O)cc1	i	-3	0	0	37	.	-12	7
CCc1nc2c(OCC(=O)c3ccc(Cl)cc3Cl)cccn2c1N(C=O)Cc1ccc(OC)cc1	.	.	-8	-5	.	-17	18	.
O=C(CN1CCC(C(=O)c2ccc(Cl)cc2)CC1)Nc1ccc2c(c1)OCCO2	i	1	-5	-6	-9	-26	6	-12
O=C(NCc1ccccc1)C1=C[C@H](C2CC2)C[C@H](OCc2ccc(CO)cc2)O1	i	0	2	-1	-11	6&-11	16[16.7 µM]	-2
CS(=O)(=O)N(CC(=O)N/N=C/c1cc2c(cc1Br)OCO2)c1ccccc1Br	i	-7	-7	-12	-7	.	.	-1
Cc1nc2c(-c3ccccc3)c(C)[nH]n2c(=O)c1Cl	i	-2	6	5	13	.	.	6
CCc1ccc(N2CN(Cc3ccco3)CNC2=S)cc1	i	-7	5	0	0	-28	11	12
CCc1nc2ccc(C(=O)NC3CCN(Cc4ccccc4)CC3)cn2c1N(C)CCN1CCOCC1	.	.	6	8	.	9	-65	.
COc1ccc(N2C(=O)CC(c3ccccc3)C2=O)cc1 (configuration not stated)	i	-8	-3	2	-7	-16	-10	-9
O=C(Nc1cccc(-c2nc3ccccc3s2)c1)c1cccs1	.	-12	3	7	62	.	-4	-3
O=C(c1ccc(O)cc1)c1ccc(Cl)cc1	i	-3	1	-1	3	26	.	-6
CCOC(=O)c1csc(NC(=O)C2CCCCC2)n1	i	-6	-16	-15	-3	-16	-13	-10
O=C(NC(=O)c1ccc(F)cc1F)Nc1ccc(Cl)cc1	i	0	1	1	-8	.	-42	8
CSc1ccc(CN2CCC(N3CC(C)OC(C)C3)CC2)cc1 (configuration not stated)	.	1	2	1	3	-18	0	15
Cc1ccccc1S(=O)(=O)NC(=O)C1(C)CCN1C(=O)c1cccc(F)c1 (configuration not stated)	.	.	-1	4	.	-18	5	.
COc1ccc(C(=O)N2CCC(C)(C(=O)NS(=O)(=O)C3CC3)C2)c(OC)c1 (configuration not stated)	.	.	3	2	.	3	-9	.
O=C(c1nn2c(C(F)(F)F)cc(-c3ccc(F)cc3)nc2c1Cl)N1CCOCC1	i	2	10	1	-6	14	.	8
CC(C)(C)c1ccc(C(=O)Nc2ccc(O)c3c(=O)cc(-c4cccc(Cl)c4)oc23)cc1	i	2	1	-2	30	-23	35	8
O=NNc1nc2ccccc2n1Cc1ccccc1	i	6	4	1	40	0	-61	3
Brc1cc(Br)cc(CN2CCSCC2)c1	i	-2	1	3	-14	-1	11	4
CCOC(=O)C1=C(C)NC(=O)NC1c1cc(Br)c(O)c(OC)c1 (configuration not stated)	i	-6	5	9	-6	-3	.	-8
CCOc1ccc(OCCC(=O)OCC(=O)NC2CCCC2)cc1	.	.	-1	0	3	-2	-9	.
COc1ccccc1NC(=O)C(CC(=O)O)Cc1cc(C)cc(C)c1 (configuration not stated)	.	.	2	7	.	-12	-17	.
O=C(c1ccco1)N1CCN(C(c2cccs2)c2nnnn2C2CCCC2)CC1 (configuration not stated)	i	-5	-1	5	6	-16	-62	-9
O=C(Nc1ccc(-c2ccco2)cc1)C1CCCN(Cc2ccco2)C1 (configuration not stated)	.	.	4	5	.	-15	8	.
Cc1cccc(CN2CCC(N3CC(C)OC(C)C3)CC2)c1 (configuration not stated)	.	5	0	5	9	-5	-17	21
Cc1ccc(S(=O)(=O)c2nc(-c3ccccc3)oc2NCc2cccnc2)cc1	i	-2	-3	-5	-1	-7	.	6
O=C(NCC1CCCCC1)c1ccc([N+](=O)[O-])cc1	i	3	1	4	-8	-6	-46	3
Next records follow:
SMILES	Rce1 inhib	eIF4H inh	MT1-MMP act inh	MT1-MMP act inh RFP	CSC inhib	UUG fidelity	HIV Env fusion	PABP FP inh	others
Cc1csc2c(N3CCC(C(=O)O)CC3)ncnc12	.	1	-1	1	-10	.	9	3
O=C(NCCOc1ccccc1)c1ccccc1[N+](=O)[O-]	i	-6	1	7	-2	.	-21	2
CC1(c2ccc3ccccc3c2)NC(=O)N(CC(=O)Nc2cccc(S(=O)(=O)N3CCOCC3)c2)C1=O (configuration not stated)	i	-8	5	-6	24	.	20	-6
CCN(CC)S(=O)(=O)c1cccc(-c2nnc(SCc3nnc(-c4cccs4)o3)n2N)c1	i	-6	0	-4	-13	-6	-13	-5
CC(=O)Nc1cccc(-c2cc(NC=O)c3ncc(-c4ccc(F)c(Cl)c4)n3c2)c1	.	.	-5	-1	.	5	-178	.
Cc1ccc(OCCC(=O)NCCc2ccc(S(N)(=O)=O)cc2)cc1	i	-1	5	3	-19	.	.	-1
COc1ccc(S(=O)(=O)N2CCN(CC3CC=CCC3)CC2)cc1 (configuration not stated)	i	-8	-1	-1	-18	-12	1	-8
COc1cc(C(O)CO)ccc1OS(=O)(=O)O (configuration not stated)	.	.	-1	-3	-2	-8	30	.
Cn1c(=S)[nH]c2ccccc21	i	2	2	3	-7	-27	-263	5
C=CCn1c(O)c(N=NC(=O)OC(C)(C)C)c2ccccc21	i	-7	0	4	-11	4	-3	3
Fc1ccc(NC(=S)N/N=C/c2ccc(F)c(F)c2)c(F)c1	i	-6	4	-1	-3	-24	-54	18
CC1CCCC(NC(=O)CCS(=O)(=O)c2cc3c(cc2Cl)NC(=O)CO3)C1C (configuration not stated)	i	2	1	-1	6	4	-8	2
Cc1ccc(Cc2c(-c3ccc(C)cc3)nc3cc(C)ccn23)cc1	.	.	-1	-9	.	57	-34	.
Cn1c(SCC(=O)NCc2ccccc2)nnc1-c1ccc(NC(=O)CCc2ccccc2)cc1	i	-5	-1	-4	10	9	.	44
Cc1cc(S(=O)(=O)N(Cc2ccccc2Cl)c2ccc3c(c2)CCC3)ccc1-n1cnnn1	i	-5	10	-15	12	.	17	-16
CCOC(=O)c1nnn(CC(=O)N2N=C(c3cc(C)ccc3C)CC2c2ccc(OC)cc2)c1C(=O)OCC (configuration not stated)	i	-8	-7	-8	2	.	.	9
CC1(Cc2ccc(OC(F)(F)F)cc2)C(=O)Nc2ccc(S(=O)(=O)NC3CCCCC3)cc21 (configuration not stated)	.	.	-32	-33	.	8	9	.
O=[N+]([O-])c1ccc(CSc2nnc3ccccn23)cc1	i	2	2	-1	1	.	-3	6
COc1ccccc1CNc1nc(SC)ncc1CO	i	-2	-6	-1	-4	4	-34	2
Cc1cc(C(F)(F)F)c2c(N)c(C(=O)Nc3cc(C)on3)sc2n1	i	59*	2	2	-14	.	-160	55*
O=C(CCCn1c(=O)[nH]c2cc(Cl)ccc2c1=O)NCCCN1CCCC1=O	i	0	-1	-4	4	-15	.	-1
O=S(=O)(c1ccccc1)N(C1=NCCS1)S(=O)(=O)c1ccccc1	i	1	1	6	-12	-8	4	1
